Compound activity as filed in PubChem BioAssay.
RanGTP-Imp inh: disruptors of Ran-importin-beta complex formation – biochemical, FRET, CFP-Ran, YFP-importin-beta, homogeneous, primary screen; cell-free CFP-Ran/YFP-importin-beta FRET ratio; inhibition, % (no concentration beside the values); 1.1% of 300,000 active;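 active = most replicates above 15%; inconclusive = exactly half above 15%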;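 note: 0% = DMSO wells and 100% = Ran loaded with GDP instead of GTP; wells of about 40 µL received 100 nL stock; the first replicate is given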
Beta cell apopt: beta cell apoptosis inhibition; 0.8% of 300,000 active; protection from apoptosis, % (concentration not given with the values); INS-1E cytokine-induced death, ATP luminescence, 48 h; percent of positive-control rescue, neutral wells zero;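 active = all replicates at 75% or more, or half of them and the mean; inconclusive = half reach 75% but not the mean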;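 note: 0% = cytokine-treated negative control wells and 100% = positive control rescue; higher means more ATP so stronger rescue from cytokine killing; wells of about 40 µL received 100 nL stock; the first replicate is given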
Vif A3G: HIV-1 Vif–A3G interaction blockers – biochemical, TR-FRET, GST-Vif 1-94, biotin-A3G peptide, dose response retest, primary screen (AID 1117319); TR-FRET GST-Vif / biotin-A3G peptide binding; higher % means a stronger effect; test concentration not given here; strong numbers were not always called active; 0.57% of 260,000 active; inhibition, %, or IC50 in µM where a hit was titrated;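 active = above the screen mean plus three standard deviations and confirmed in dose response; inconclusive = results disagree or hit not tested in dose response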;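 note: Vif residues 1-94 fused to GST binding biotinylated APOBEC3G peptide 110-148; 0% = full assay without inhibitor and 100% = GST in place of GST-Vif; retest series ran down from 100 µM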
MLL AF4-AF9 inh: inhibitors of human MLL-AF4/AF9 interaction; P42568; inhibition, % at 10 µM; AID 651704; 0.47% of 350,000 active; AlphaScreen, biotin-AF4 peptide binding to FLAG-AF9;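 active = every replicate reaching a set inhibition limit, whatever the replicate mean, cut at about 25% in these data; inconclusive = mean inhibition reaches that limit but some replicates miss it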;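 note: 0% = plate neutral control median and 100% = total signal loss; the record names both 10 and 1 µM as test concentration; the first replicate is given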
Target sequence (P42568 whole entry, looked up): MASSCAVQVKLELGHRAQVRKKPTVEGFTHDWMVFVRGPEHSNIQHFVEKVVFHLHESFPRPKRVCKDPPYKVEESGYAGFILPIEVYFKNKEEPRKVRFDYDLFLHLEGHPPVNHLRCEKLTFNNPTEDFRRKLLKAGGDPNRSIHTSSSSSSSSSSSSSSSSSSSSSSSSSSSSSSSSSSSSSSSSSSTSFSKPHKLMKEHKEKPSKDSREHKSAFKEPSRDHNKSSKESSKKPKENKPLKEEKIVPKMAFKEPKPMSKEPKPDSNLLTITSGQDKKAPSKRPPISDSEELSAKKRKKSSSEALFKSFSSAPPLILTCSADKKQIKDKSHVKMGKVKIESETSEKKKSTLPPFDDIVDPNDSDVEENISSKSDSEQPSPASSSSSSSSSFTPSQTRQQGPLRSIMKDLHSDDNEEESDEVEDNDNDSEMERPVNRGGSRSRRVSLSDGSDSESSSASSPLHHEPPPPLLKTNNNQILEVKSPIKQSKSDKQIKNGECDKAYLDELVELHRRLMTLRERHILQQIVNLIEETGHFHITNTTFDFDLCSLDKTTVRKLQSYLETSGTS
T cruzi inh: blocks replication of Trypanosoma cruzi. T. cruzi beta-gal in NIH3T3, luminescence, 90 h. inhibition, % (test concentration not listed). 1.4% of 300,000 active. AID 1885;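 active = mean inhibition across valid replicates above about 55%, limit read from the data; inconclusive = mean below that limit but half or more replicates reach it; inactive = mean below it, under half of replicates reach it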;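 note: signal also drops with host cell toxicity which is not excluded here; 0% = plate median of DMSO wells and 100% = zero luminescence signal; higher percent means less beta-gal luminescence so fewer parasites; stock transfer was 50 nL into about 50 µL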
A1 inh: inhibitors of the anti-apoptotic protein A1, read as caspase activation; MEF A1-2A-BIM cells, Caspase-Glo 3/7 luminescence, 3 h; percent of clofoctol response, vehicle zero; caspase activation, % (concentration not given with the values); 0.066% of 330,000 active;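 active = over half of replicate activation scores above 10%, or exactly half above 10 with the replicate mean above 10; inconclusive = replicate mean below 10 yet half the replicates above 10; inactive = over half of replicates below 10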;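 note: wells of about 30 µL received 50 nL stock; many hits fall short of the cut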
Calb FLC: C. albicans growth modulation with fluconazole; C. albicans CaCi-2 (fluconazole-resistant clinical isolate) + fluconazole, Alamar Blue growth, 48 h; growth inhibition, % (concentration not given with the values); AID 1979; 0.57% of 300,000 active;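 active = most replicates above 75%; inconclusive = exactly half above 75%; inactive = most below 75%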;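 note: all wells also contain fluconazole at 8 µg/ml as a sub-toxic cotreatment; 0% = median of DMSO wells and 100% = median of geldanamycin control wells; wells of about 8 µL received 7.5 nL stock; the first replicate is given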
Ecoli rRNA inh: inhibits bacterial ribosomal RNA function over humanized ribosomes; E. coli WT GFP vs humanized-ribosome RFP mutants, fluorescence, 24 h; active compounds read low; DMSO median 0, no signal -100; GFP signal change (wild-type ribosome), % (test concentration not listed); 1.6% of 350,000 active;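 active = significant combined selectivity score with lowered wild-type GFP, culture density cut under 30%, mutant RFP and density less affected; inactive = any of these conditions unmet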; note: one replicate is shown; some compounds called inactive have numbers as strong as hits
Ecoli rRNA inh OD600: also measured in Ecoli rRNA inh; calls as there; OD600 change, %; measured here: OD600 growth;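 optical density of the mix in the first replicate; 0 = DMSO median and -100 = no signal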
Ecoli rRNA inh RFP: also measured in Ecoli rRNA inh; calls as there; RFP signal change, %; measured here: RFP humanized mutant strains;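 first replicate; 0 = DMSO median and -100 = no signal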
The depositor's hits bear a star; ? = inconclusive; · = no result given.

SMILES	RanGTP-Imp inh	Beta cell apopt	Vif A3G	MLL AF4-AF9 inh	T cruzi inh	A1 inh	Calb FLC	Ecoli rRNA inh	Ecoli rRNA inh OD600	Ecoli rRNA inh RFP
Cc1ccc(-n2nnnc2CNC(=O)C2CC(=O)N(c3ccc(F)cc3)C2)cc1C (stereo not given)	-1.1	1	·	10	-4	?	-2	1	3	0.6
O=C(Nc1ccc(N2CCOCC2)cc1)c1cccc2c(Br)cccc12	1.0	-3	·	-0.1	6	-0.3	-11	4	-4	0.9
Clc1ccc(-c2nn3c(-c4ccccc4)nnc3s2)cc1	-1.6	4	8%	·	17	-0.8	28	·	·	·
Cc1c(N=Cc2c(O)n(Cc3ccco3)c(=O)c3ccccc23)c(=O)n(-c2ccccc2)n1C	22*	5	-4%	9.5	29	0.6	1	-10	-16	9.6
CN(C)CCN(Cc1ccccc1)S(=O)(=O)c1ccc(-c2ccc(=O)[nH]n2)s1	2.1	-9	·	-2.6	-3	-1.8	-34	1	8	1.3
CC(=O)Nc1ccc(C(=O)CSc2nnc(Cn3nnc4ccccc43)n2C)cc1	0.5	3	2%	1.0	-5	-0.2	-6	7	7	-1.0
O=C(O)c1ccc(NC(=O)c2cn(-c3ccccc3)nc2-c2ccc(F)cc2)cc1	-4.6	-4	0%	2.8	1	-0.4	-2	-11	-5	9.6
Cc1ccccc1NC(=S)N(CCN1CCCCCC1)Cc1cccs1	3.2	4	-11%	-2.2	-6	-0.3	-5	-4	-2	-1.7
O=C1CCCC2=C1C(c1ccccc1)n1c(s/c(=C/c3cccc(F)c3)c1=O)=N2 (stereo not given)	-2.2	8	4%	·	-4	1.1	-5	·	·	·
Cc1ccc(F)c([C@H]2[C@H]3C=CC[C@@H](C)[C@@H]3C(=O)N2Cc2ccccc2)c1	-1.4	-10	·	0.3	31	0.1	1	-22	-36	8.2
CCOC(=O)c1sc(NC(=O)CSc2n[nH]c(-c3ccccc3)n2)c(C#N)c1C	-1.4	·	1%	·	6	-3.1	-1	·	·	·
COc1ccc(CN2C(=O)c3ccccc3C2OC)cc1 (stereo not given)	3.8	-1	4%	-0.3	-9	1.1	11	0	1	0.0
CC[C@H](C)[C@@H](C(=O)N1CCNCC1)n1cc([C@@H](N)CC(C)C)nn1	2.9	0	2%	1.1	-17	1.2	-6	6	5	3.2
Cc1noc(C)c1CCC(=O)N1CCCC(CO)(Cc2ccccc2)C1 (stereo not given)	-0.2	-2	-3%	-0.4	-22	0.0	0	7	-4	1.0
CC(C(=O)Nc1ccc(S(=O)(=O)N2CCCC2)cc1)N1CCN(c2ccccc2O)CC1 (stereo not given)	·	9	·	4.9	·	0.5	·	-12	-9	0.4

The closing 6 compounds of the part above are carried over, then new ones follow.
SMILES	RanGTP-Imp inh	Beta cell apopt	Vif A3G	MLL AF4-AF9 inh	T cruzi inh	A1 inh	Calb FLC	Ecoli rRNA inh	Ecoli rRNA inh OD600	Ecoli rRNA inh RFP
Cc1ccc(F)c([C@H]2[C@H]3C=CC[C@@H](C)[C@@H]3C(=O)N2Cc2ccccc2)c1	-1.4	-10	·	0.3	31	0.1	1	-22	-36	8.2
CCOC(=O)c1sc(NC(=O)CSc2n[nH]c(-c3ccccc3)n2)c(C#N)c1C	-1.4	·	1%	·	6	-3.1	-1	·	·	·
COc1ccc(CN2C(=O)c3ccccc3C2OC)cc1 (stereo not given)	3.8	-1	4%	-0.3	-9	1.1	11	0	1	0.0
CC[C@H](C)[C@@H](C(=O)N1CCNCC1)n1cc([C@@H](N)CC(C)C)nn1	2.9	0	2%	1.1	-17	1.2	-6	6	5	3.2
Cc1noc(C)c1CCC(=O)N1CCCC(CO)(Cc2ccccc2)C1 (stereo not given)	-0.2	-2	-3%	-0.4	-22	0.0	0	7	-4	1.0
CC(C(=O)Nc1ccc(S(=O)(=O)N2CCCC2)cc1)N1CCN(c2ccccc2O)CC1 (stereo not given)	·	9	·	4.9	·	0.5	·	-12	-9	0.4
CCOC(=O)N1CCN(C(c2ccc(C)cc2)c2sc3nc(C)nn3c2O)CC1 (stereo not given)	5.5	-5	·	13	9	1.3	0	1	-3	3.2
O=c1c(Cl)c(N2CCN(c3ccc(F)cc3)CC2)cnn1-c1nc2ccccc2s1	-0.2	·	·	·	-9	-4.2	-9	·	·	·
Cc1nc2ccccn2c1C(=O)NNS(=O)(=O)c1ccc(C(C)(C)C)cc1	4.5	32	-9%	·	-10	-1.0	-4	·	·	·
Cc1ccc(S(=O)(=O)N(CC(=O)N/N=C/c2ccco2)c2cc(Cl)cc(Cl)c2)cc1	-2.3	-5	·	·	-8	-0.4	-8	·	·	·
CN1CCc2c(sc(NC(=O)Cc3ccc(F)cc3)c2C(N)=O)C1	131*	-2	·	0.4	9	-0.1	-1	6	10	-2.6
O=C(CS(=O)c1cccc(C(F)(F)F)c1)Nc1ccc(Cl)cc1Cl (stereo not given)	0.6	-2	0%	·	0	·	24	·	·	·
Cc1c(NC(=O)c2cccs2)cccc1[N+](=O)[O-]	?	0	2%	1.4	0	0.7	-7	·	·	·
COc1ccccc1NC(=O)CN1C(=O)COc2ccc(C)cc21	?	-1	·	-1.0	-3	-0.1	-2	8	9	-1.8
COc1cc(/C=C/CO)cc(OC)c1OC/C=C(\C)CCC=C(C)C	0.0	·	·	0.2	16	1.1	11	·	·	·
O=C(Nc1cccc(Oc2ccc(C(=O)O)c(C(=O)O)c2)c1)c1ccc(-c2ccccc2)cc1	-10	0	9%	1.3	-6	-5.2	-4	-9	-18	26
C/C=C\C=C\C(=O)N1CC2(CC(c3cccc(NC(=O)CC)c3)=NO2)C[C@H]1C(N)=O (stereo not given in full)	0.1	-2	?	-18	-13	0.0	-4	10	11	-1.9
CCCNC(=O)C1CC2Cn3c(nc4ccccc43)C2N1C (stereo not given)	-0.9	-8	·	2.5	-8	1.1	-5	10	4	-3.6
COc1ccc(/C=N/Nc2nc3ccccc3o2)cc1O	3.2	-4	9%	·	5	-6.8	19	·	·	·
Cc1cc(=O)n2nc(N3CCC(C(=O)NCc4cccc(Br)c4)CC3)sc2n1	-5.2	0	·	-2.5	11	0.8	1	-6	1	0.4
O=C(Nc1ncc(Cc2cccc(C(F)(F)F)c2)s1)C1CCCO1 (stereo not given)	-0.2	-2	6%	-6.1	18	0.6	0	-6	-4	-1.8
Cc1cc(C)c(S(=O)(=O)Nc2ccc(Cl)cn2)c(C)c1	3.2	-1	·	-2.3	9	0.4	57	-31*	-19*	2.8*
O=C(CN1CCCC1)Nc1ccc(Br)cc1[N+](=O)[O-]	1.3	·	·	4.2	-1	-0.9	9	10	6	1.5
O=C(NNC1=NS(=O)(=O)c2ccccc21)c1ccc(Cl)cc1	-3.6	-2	2%	-1.2	-15	-0.7	5	16	21	0.0
CC(C)(C)OC(=O)N1CCCC(C(=O)CC#N)C1 (stereo not given)	?	-4	-5%	·	9	0.2	3	·	·	·
O=C(N(c1ccccc1)c1ccccc1)N(c1ccccc1)c1ccccc1	-1.4	-1	0%	·	7	0.2	1	-16	-9	4.0
COc1ccccc1N(Cc1ccccc1)S(=O)(=O)c1cccc(C(=O)NC2CC(C)(C)NC(C)(C)C2)c1	1.6	13	-3%	8.3	53	0.1	2	-38	-68	25
O=C(CN(Cc1ccccc1)C(=O)c1csnn1)NCc1ccccc1	1.1	-4	-6%	-2.4	3	0.3	-17	-5	-3	-6.2
Cc1ccc(S(=O)(=O)N[C@H](C(=O)NC2CCC(C)CC2)C(C)C)cc1 (stereo not given in full)	·	4	·	8.4	·	0.7	·	3	3	-1.2
O=C(Nc1ccc2c(c1)CCC2)Nc1ccc2c(c1)OCO2	?	-2	-8%	-2.3	20	-4.7	-15	14	13	1.8
Cc1nnc(SCC(=O)Nc2ccccc2)[nH]c1=O	-1.1	-13	9%	·	-9	-0.1	-1	·	·	·
CCCNC(=O)Cn1nc(C(F)(F)F)cc1C	0.2	-10	7%	-1.7	-1	0.2	12	14	16	-3.5
O=C(O)C(Sc1ccncn1)c1ccccc1 (stereo not given)	-0.2	0	?	-1.5	-12	-0.2	1	8	0	-3.2
CCOC(=O)C1CCN(S(=O)(=O)c2ccc(OC)c(Cl)c2Cl)CC1	1.2	4	1%	-7.3	-10	0.9	-4	9	0	-6.0
COc1ccc(CN2CCN(C(=O)CC(C)C)CC2)c(OC)c1OC	1.7	-17	26%	·	-24	0.5	0	·	·	·
CCC1COCCS(=O)(=O)N1Cc1ccc(C)cc1 (stereo not given)	-0.3	-1	·	·	-8	-0.2	-9	·	·	·
CN(C)/C=C/C(=O)c1ccccc1F	-1.2	-8	8%	·	-6	1.2	1	·	·	·
Cc1cc(N2CC34C=CC(O3)C(C(=O)O)C4C2=O)no1 (stereo not given)	1.7	-2	?	·	-23	1.2	-1	·	·	·
COc1cccc(OC)c1C(=O)N1CCN(S(=O)(=O)c2ccccc2)CC1	-1.7	2	28%	·	6	-0.1	-2	·	·	·
Cc1nc2ccc(NC(=O)N3CCC(c4ccccc4)C3)cc2nc1C (stereo not given)	0.8	-2	5%	·	16	-0.2	-3	·	·	·
Cc1nnc(NC(=O)c2oc3c(ccc4ccccc43)c2C)s1	-0.7	·	2%	·	14	-1.9	5	·	·	·
COc1cc(NCC(=O)Nc2cccc(S(=O)(=O)N3CCCCC3)c2)cc(OC)c1OC	·	2	-12%	-11	·	0.1	·	-3	5	-0.4
Cc1ccc(C(C(=O)NCc2ccccc2)N(Cc2cccs2)C(=O)c2ccc3c(c2)OCCO3)cc1 (stereo not given)	0.3	8	·	4.2	14	-0.1	20	5	4	2.1
COc1ccc(/C=C/C(=O)c2cc(Br)ccc2O)cc1OC	-15	-3	2%	2.0	0	-0.4	1	4	6	-0.5
CCOC(=O)c1c(CN2CCN(c3ccccc3)CC2)oc2ccc(O)cc12	2.3	·	10%	10	25	-0.1	8	-2	-9	2.2
CC(=O)NC(=O)Nc1sc(=S)n(C)c1C	2.8	-5	-3%	·	-8	-0.1	0	·	·	·
COc1ccccc1NC(C)=O	-3.3	-7	13%	·	12	-0.2	1	·	·	·
CC(=O)c1ccccc1NC(=O)CSc1nnc2ccccn12	0.3	0	-7%	·	-13	0.5	-28	·	·	·
O=C(c1ccccc1Cc1ccccc1)N1CCN(S(=O)(=O)c2ccccc2)CC1	6.2	5	·	-0.4	26	0.5	-5	-8	-20	-1.8

Not all compounds are listed; rates above refer to the full screens.
